miR-21 reporter: miR-21 reporter, rising signal; 340,000 tested, under 10 active; Potency, µM (top dose mostly 38.3 µM), inactives show at the highest dose reporter change, positive = more light; AID 2288; HeLa miR-21 FLuc reporter, luciferase, 48 h; active = well fitted rising curve with a large enough effect; inconclusive = small, poorly fitted or top-dose-only effect; inactive = no such curve, though single readings can be large or run the other way;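 further: % of control where 0% means no effect; miR-21 action dims this reporter so a rising signal means less miR-21 action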
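Compounds were titrated across several concentrations (up to approximately 40 uM) and incubated 48 hours with HeLa miR-21-FLuc reporter cells (miR-21 target sequence downstream of FLuc, endogenous miR-21). Readout was firefly luciferase luminescence after lytic detection reagent.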
Rango-impB inh: prevents formation of the Rango-importin beta complex; AID 540263; Potency, µM (series often up to 92.2 µM), inactives show top-dose inhibition of complex formation; 0.031% of 340,000 active; Rango CFP/YFP FRET sensor + importin beta, 45 min; active = rising FRET ratio curve, often small or poorly fitted; inconclusive = mostly compound fluorescence or quenching in the first reads; inactive = flat curves in all reads;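 further: potency means the concentration at half of the fitted maximal effect; 0% = DMSO wells and 100% = buffer wells lacking importin beta; nearly all actives have a fitted effect of over 15% in size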
Target sequence (Q14974 whole entry, looked up): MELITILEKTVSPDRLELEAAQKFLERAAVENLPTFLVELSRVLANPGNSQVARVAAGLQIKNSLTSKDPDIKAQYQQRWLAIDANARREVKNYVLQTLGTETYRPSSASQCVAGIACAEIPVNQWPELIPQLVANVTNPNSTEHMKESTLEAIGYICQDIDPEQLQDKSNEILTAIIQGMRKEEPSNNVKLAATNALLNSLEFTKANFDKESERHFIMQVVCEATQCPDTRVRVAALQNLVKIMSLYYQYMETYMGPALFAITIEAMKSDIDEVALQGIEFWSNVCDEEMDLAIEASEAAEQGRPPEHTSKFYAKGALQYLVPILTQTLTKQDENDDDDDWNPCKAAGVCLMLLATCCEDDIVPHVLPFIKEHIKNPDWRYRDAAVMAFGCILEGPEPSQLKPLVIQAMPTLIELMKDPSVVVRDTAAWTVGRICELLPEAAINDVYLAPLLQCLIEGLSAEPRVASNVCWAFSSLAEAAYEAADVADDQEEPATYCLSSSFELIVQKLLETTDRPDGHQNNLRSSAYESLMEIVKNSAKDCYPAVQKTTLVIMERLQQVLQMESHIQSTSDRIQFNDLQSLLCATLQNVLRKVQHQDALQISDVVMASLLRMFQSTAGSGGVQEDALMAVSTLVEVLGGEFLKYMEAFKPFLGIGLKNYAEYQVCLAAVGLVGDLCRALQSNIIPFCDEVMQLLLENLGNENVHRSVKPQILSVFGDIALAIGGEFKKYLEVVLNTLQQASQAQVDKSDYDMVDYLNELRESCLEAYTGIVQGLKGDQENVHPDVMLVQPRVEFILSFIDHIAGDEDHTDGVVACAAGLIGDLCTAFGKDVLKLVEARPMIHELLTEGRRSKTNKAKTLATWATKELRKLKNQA
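FRET biosensor (snurportin 1 IBB flanked by EYFP and cerulean), 50 nM, with compound 5 min, then 0.125 microM importin beta in PBS, 1 mM DTT, 0.02% Tween-20, 0.1% BSA. CFP/YFP ratio read after 45 min at room temperature; pre-read flags interference.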
GLA inh pH 4.5: inhibitors of human alpha-galactosidase A at pH 4.5; purified enzyme, 4-MU-alpha-Gal fluorescence, pH 4.5; activity change, negative = inhibition, % at 105 µM; 230,000 tested, under 10 active; inconclusive = small, poorly fitted or top-dose-only inhibition, or a rising curve; inactive = flat fitted curve, though single readings scatter; no compound was filed as active;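 further: 0% = full activity with enzyme and -100% = basal without enzyme; dose as in the result columns while the protocol names 77 µM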
Rango release inh: inhibitors of RanGTP-induced Rango-importin beta complex dissociation. Potency, µM (doses to about 46.1 µM), inactives show top-dose activity change, negative = inhibition. 0.071% of 340,000 active. O95149+P62826. Biochemical FRET Rango-importin beta, RanGTP-induced dissociation; active means falling FRET ratio curve, often poorly fitted, with flat reads before Ran was added; inconclusive means other falling curves, or compound fluorescence or quenching; inactive means flat or rising ratio curve;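 further: potency means the concentration at half of the fitted maximal effect; % of control where 0% means no effect; nearly all actives have a fitted effect of over 45% in size; -100% = wells without RanGTP and RCC1; the record marks most hits as doubtful in a second field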
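Rango/importin beta premix (0.1/0.25 uM final), PBS + 1 mM DTT + 0.02% Tween-20 + 0.1% BSA; cpd 5 min RT; FRET pre-read; + RanGTP-RCC1 (0.6 uM Ran, 2 mM GTP, 0.2 uM RCC1); 45 min RT; FRET post-read, ex 430, em 486/530 nm.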
Numbers without * were called inactive; ? = inconclusive; · = not tested or not shown; & = joins results of further samples.

structure	miR-21 reporter	Rango-impB inh	GLA inh pH 4.5	Rango release inh
Cc1ccc(S(=O)(=O)N2CCN(C(=O)c3cccc(-n4cccc4)c3)CC2)cc1	·	2.9%	·	-21%
COC(=O)c1ccc(COC(=O)c2cnc(Cl)c(Cl)c2)cc1	-18%	?	·	1%
CCOC(=O)c1nnn(-c2nonc2-c2ccccc2)c1C	-1%	-2.3%	-3	9%
CC(Oc1ccccc1F)C(=O)NNC(=O)C1CC(=O)N(c2ccc3c(c2)OCCO3)C1 (stereo unspecified)	·	-0.9%	·	-7%
COc1cc(SC)ccc1C(=O)NC1CCCCC1	-47%	-3.1%	-6	?
COc1ccc(C(=O)Cn2nnc(-c3ccc(N4CCOCC4)cc3)n2)cc1OC	-8%	1.9%	-18	11%
Oc1cccc(C(=S)N2CCCCC2)c1	-40%	?	7	-16%
COc1ccc(/C=N/NC(=O)CCn2cnc(-c3ccccc3)c2-c2ccccc2)cc1OC	22%	0.3%	-16	0%
CCCCNC(=O)CCSc1ccc(C)cc1	-8%	4.5%	-13	-3%
CS(=O)(=O)c1ccc(CNC(=O)C2(C(F)(F)F)C/C(=C\Cc3ccccc3)CCCO2)cc1 (stereo unspecified)	·	-0.3%	·	0%
NC(=O)N=Nc1c2[nH]c3ccccc3nc-2c2ccccc12	27%	2.1%	-1	-16%
COc1ccc(-n2nc(C(=O)NCC(=O)N3CCCCCC3)c3ccccc3c2=O)c(OC)c1	-34%	?	·	10%

Pulled by structure from the list above:
structure	miR-21 reporter	Rango-impB inh	GLA inh pH 4.5	Rango release inh
CCCCNC(=O)CCSc1ccc(C)cc1	-8%	4.5%	-13	-3%
NC(=O)N=Nc1c2[nH]c3ccccc3nc-2c2ccccc12	27%	2.1%	-1	-16%

New compounds follow.
structure	miR-21 reporter	Rango-impB inh	GLA inh pH 4.5	Rango release inh
COC(=O)CSc1nc(SCc2ccc(C)cc2)nc2c1CCCC2	0%	-1.4%	-6	0%
COc1ccc(OC)c(C(=O)COC(=O)COc2ccccc2F)c1	·	-3.4%	·	10%
COc1ccc([C@@H]2CC=C(C(=O)O)[C@H](c3ccc(Cl)cc3)N2S(=O)(=O)c2ccc(Cl)cc2)cc1	·	-4.2%	·	15%
CCOC(=O)Cc1csc(NS(=O)(=O)c2ccc(Cl)cc2)n1	-6%	2.6%	4	-11%
Cc1cc(C)nc(SCC(=O)Nc2ncc(C(F)(F)F)cc2Cl)n1	-11%	-4.3%	6	2%
Cc1cc(NC(=O)c2ccccc2Cl)n(C(C)(C)C)n1	-6%	0.8%	3	-19%
Cc1ccnc(NC(c2cccnc2)c2ccc3cccnc3c2O)c1 (stereo unspecified)	25%	2.4%	-1	6%
CC(=O)Oc1c(C)c2c3c(c1OC(C)=O)[C@@H](C)CC[C@@H]3[C@@H](C)C[C@H]2C=C(C)C	·	5.1%	·	25%
Cc1ccc(NC(=O)Cn2nnc(C(=O)NCc3ccc4c(c3)OCO4)c2N)cc1	-11%	-3.7%	·	6%
COc1cc(NC(=O)CSc2ccc(-c3ccco3)nn2)cc(OC)c1	-2%	-2.5%	·	-11%
CCn1c(C)nc2cc(S(=O)(=O)C(F)(F)F)ccc21	-12%	0.9%	-2	7%
N#CC1=C(N)OC2=C(CCC/C2=C/c2ccoc2)C1c1ccoc1 (stereo unspecified)	-38%	·	-1	·
COc1cc(/C=N/O)cc(Br)c1OS(=O)(=O)c1ccc(C)cc1	1%	-0.2%	-11	9%
COC(=O)C1=C(C(=O)OC)[C@@H]2N(Cc3ccccc3)c3ccccc3[C@@]23C[C@@H](C(=O)OC)N(C(=O)c2cccs2)C3=N1	?	-0.8%	7&-13	19%
CC(=O)Nc1ccc(Oc2ccc(-c3noc(C)n3)cc2)cc1	-17%	-1.6%	3	-7%
CCCn1c(SCC(=O)N2CCc3ccccc32)nnc1-c1ccncc1	-6%	·	-1	·
C#CCOCCOCCOCCNc1nc(N2CCN(C(=O)[C@H](CCC(=O)O)n3cc(C(N)CO)nn3)CC2)nc(N2CCN(C(=O)[C@H](CCCCN)n3cc(C(N)CC(C)C)nn3)CC2)n1 (stereo partly specified)	6%	·	-5	·
CN(CC(=O)Nc1n[nH]c(=S)s1)S(=O)(=O)c1cccc2cccnc12	-2%	0.0%	·	10%
Cc1ccc(CNC(=O)CSc2nc3n[nH]c(C)c3c(=N)n2-c2cccc(C)c2)cc1	8%&14%	-3.0%	6	3%
Cc1ccc(Oc2ncccc2N)c2c1CCC2	0%	-4.5%	4	-22%
COc1ccc(C(=O)N2CCC(n3nnc4cc(F)ccc43)CC2)cc1OC	3%	-0.5%	8	-6%
O=C1NC(=S)/C(=C\c2ccc(-c3ccccc3Cl)o2)S1	-20%	-0.9%	-17	-29%
CCOC(=O)C1(Cc2ccccc2C)CCCN(C(=O)CN2C(=O)CSC2=O)C1 (stereo unspecified)	-11%	2.1%	·	-2%
CNC(=O)/C(C#N)=C/c1c(N(Cc2ccccc2)Cc2ccccc2)nc2c(C)cccn2c1=O	-11%	?	17	?
CCc1ccccc1NC(=O)c1cccc(Oc2ccc([N+](=O)[O-])cc2Cl)c1	-4%	9.9%	-10	-8%
COCCNC(=O)C(c1ccc(O)cc1)N(Cc1ccco1)C(=O)CCC(=O)Nc1ccccn1 (stereo unspecified)	-1%	0.2%	·	5%
CC(=O)c1ccc(NC(=O)CCc2nnc3ccc(N4CCC5(CC4)OCCO5)nn23)cc1	-57%	0.4%	·	-2%
CC(=O)C1(C)N(O)C(C)(C)C(c2ccco2)=[N+]1[O-] (stereo unspecified)	0%	-0.1%	-24	0%
Cc1ccc2[nH]c(C(=O)N3CCCCC3)cc2c1	-45%	-1.3%	·	8%
CCC(C)NC(=O)CSc1nc2ccc(N3CCOCC3)cc2c(=O)n1CCc1ccccc1 (stereo unspecified)	-2%	·	-9	·
COc1ccc(CNC(=O)Nc2cccc(C(F)(F)F)c2)cc1OC	26%	0.4%	7	-15%
COc1ccc(/C=N/Nc2nc(C)cc(-c3ccccc3)n2)c(OC)c1	-1%	-0.4%	·	-2%
COc1cc(OC)cc(C(=O)Nc2nnc(NC(=S)Nc3ccccc3)s2)c1	-18%	1.3%	-7	-5%
CC(C)=C1C2CCC1C(C(=O)Nc1sc(C)c(-c3ccc(C(C)C)cc3)c1C(N)=O)C2C(=O)O (stereo unspecified)	?	2.5%	-12	-2%
O=C(NCC1CCCO1)/C(=C\c1ccccc1)NC(=O)c1ccccc1 (stereo unspecified)	-1%	-2.1%	0	14%
COc1ccc(-c2cc(-c3ccccc3)c(C#N)c(SCC(=O)Nc3ncc(C)s3)n2)cc1	-9%	?	2	-11%
COc1ccc(CC(=O)Nc2ccc(S(=O)(=O)N(C)C)cc2)cc1OC	-4%	3.7%	11	1%
O=C(Nc1ccc(C(=O)N2CCCC2)cc1)c1ccccc1[N+](=O)[O-]	-5%	-0.7%	3	-16%
Cc1cc(N/N=C/c2ccc(O)cc2O)nc(-n2nc(C)cc2C)n1	?	-6.5%	-12	4%
COc1ccc(NC(=O)CSC2CCCCC2)cc1	-20%	0.0%	-5	14%
Cc1ccc(-c2csc3nc4c5ccccc5c(NCCCN5CCOCC5)nn4c(=O)c23)cc1	-6%	·	8	·
CC(C)C[C@H]1CN([C@@H](CC(C)C)CN2CCCC2CN2C(=S)NC[C@@H]2Cc2ccc(O)cc2)C(=S)N1CCc1ccccc1 (stereo partly specified)	·	2.0%	·	13%
CCc1nnc(NC(=O)c2sc3nc(C)cc(COC)c3c2N)s1	-26%	?	0	?
O=C(O)CCC(=O)Nc1ccc(Sc2ccc([N+](=O)[O-])cc2)cc1	-6%	3.5%	-18	8%
CC(C)CCSc1nc2c(c(=O)[nH]c(=O)n2C)n1CCCc1ccccc1	-9%	2.6%	5	8%
COC(=O)c1ccc(CSc2nnc(C)s2)cc1	-52%	-2.5%	8	-19%
OCCC1CN(CCCc2ccccc2)CCN1Cc1ccc(F)cc1 (stereo unspecified)	-1%	2.4%	·	-1%
Cn1c(=S)ccc2ccccc21	-8%	0.1%	0	-11%
CC(NS(=O)(=O)c1ccccc1)C(c1cccs1)N1CCN(C)CC1 (stereo unspecified)	0%	0.0%	-1	-4%
Cc1cccc(NC(=S)NC23CN4CN(CN(C4)C2)C3)c1C	0%	-0.7%	-1	1%
CS(=O)(=O)N(CC(=O)NCC1CCCO1)c1ccc(Cl)c(Cl)c1 (stereo unspecified)	-6%	-6.5%	2	7%
Cc1cc2nc(C(F)(F)F)cc(-c3cccs3)n2n1	-3%	?	-4	?
O=C(Cc1n[nH]c(=O)c2ccccc12)OCC(=O)c1ccc(F)c(F)c1	·	0.3%	·	-10%
COC(=O)C1=C(C)N(c2ccc(Br)cc2)C(=O)/C1=C\c1ccco1	-6%	0.9%	-5	-5%
Cc1cnc(C(=O)Nc2nnc(C)s2)cn1	-11%	-0.4%	-2	-1%
CSc1ccccc1NC(=O)c1cc(Cl)sc1Cl	-10%	0.1%	·	1%
Cc1ccc(SCC(=O)NCc2ccncc2)cc1	-1%	4.4%	-2	28%
Cn1c(=O)c2c(nc(CN3CCN(c4ccccc4)CC3)n2Cc2ccccc2F)n(C)c1=O	-1%	·	-6	·
CNC(=S)N=Nc1c(O)[nH]c2ccc(C(C)C)cc12	21%	-3.0%	-12	1%
O=C(CN1CCOCC1)NCc1ccccc1	-5%	0.0%	-1	0%

The results go on.
structure	miR-21 reporter	Rango-impB inh	GLA inh pH 4.5	Rango release inh
CCOc1ccccc1NC(=S)N1CCN(c2nc(-c3ccc(F)cc3)cs2)CC1	-11%	-1.8%	-3	17%
O=C(COC(=O)c1cc([N+](=O)[O-])ccc1NCCO)Nc1cccc(S(=O)(=O)N2CCCC2)c1	·	-1.1%	·	2%
COc1ccc(OC)c(NC(=O)c2c3c(nc4ccccc24)CCC3)c1	-1%	2.6%	-5	-6%
CCn1cc(C(=O)NC2CCCCC2C)c(=O)c2ccc(C)nc21 (stereo unspecified)	-3%	0.6%	-13	-4%
CN(C)c1cccc(C(=O)NCC2CCCO2)c1 (stereo unspecified)	-35%	7.2%	1	10%
CCOC(=O)C1=C(N)Oc2cc(O)ccc2C1c1cccnc1 (stereo unspecified)	9%	?	-1	?
CCOc1ccc2nc(NC(=O)c3cc([N+](=O)[O-])ccc3N3CCOCC3)sc2c1	-4%	-1.6%	-8	16%
C=CCn1c(SC(C)C(=O)NCCC2=CCCCC2)nc2ccccc2c1=O (stereo unspecified)	9%	1.5%	-7	0%
CCN(CC)S(=O)(=O)c1ccc(-c2nnc(SCc3nnc(-c4ccc(C)cc4)o3)n2CC)cc1	-16%	-0.1%	-3	-3%
COC(=O)CSc1nnc(SCc2ccc(OC)cc2)s1	22%	-0.6%	-5	0%
Cc1ccccc1Cn1c(=O)c2c(nc3n2CCN3Cc2ccco2)n(C)c1=O	·	0.1%	·	0%
O=C(CSc1nnc(-c2ccccc2)o1)NC1CCCCC1	-12%	-1.0%	-13	1%
Cc1ccc(Cl)cc1N1CCN(C(=O)Cc2ccc(-n3c(=O)[nH]c4ccsc4c3=O)cc2)CC1	-7%	-0.5%	3	19%
CC(=O)Oc1ccc(Nc2ccccc2)cc1	-22%	-2.8%	3	-8%
CCCCOc1ccc(C(C)NC(=O)CCS(=O)(=O)Cc2ccc(C)cc2)cc1 (stereo unspecified)	9%	-1.4%	-2	2%
CCCCNc1nc2c(S(=O)(=O)c3ccccc3)nnn2c2ccccc12	-11%	-3.4%	2	-6%
CCOC(=O)Cc1csc(NC(=O)CSc2ncnc3c2cnn3-c2ccc(OC)cc2)n1	-22%	?	-6	-10%
CCCN(CCC)c1ncnc2c1cnn2-c1ccc(OC)cc1	-50%	5.0%	-5	1%

Some of the compounds tested, so the mix of outcomes need not match the whole.
